CD11b adhes inh: inhibitors of human CD11b/CD18 binding to fibrinogen; inhibition, % at 10 µM; 93,000 compounds, 0.54% hits; AID 1497; K562 CD11b/CD18 adhesion to fibrinogen, ATPlite luminescence; Mn2+ added to activate the integrin; P05107+P11215;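 active means primary inhibition of 50% or more at 10 µM, then 40% or more on retest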; further: some results filed as inactive read as strong as hits
Target sequence (P05107 whole entry, looked up, other chains not shown): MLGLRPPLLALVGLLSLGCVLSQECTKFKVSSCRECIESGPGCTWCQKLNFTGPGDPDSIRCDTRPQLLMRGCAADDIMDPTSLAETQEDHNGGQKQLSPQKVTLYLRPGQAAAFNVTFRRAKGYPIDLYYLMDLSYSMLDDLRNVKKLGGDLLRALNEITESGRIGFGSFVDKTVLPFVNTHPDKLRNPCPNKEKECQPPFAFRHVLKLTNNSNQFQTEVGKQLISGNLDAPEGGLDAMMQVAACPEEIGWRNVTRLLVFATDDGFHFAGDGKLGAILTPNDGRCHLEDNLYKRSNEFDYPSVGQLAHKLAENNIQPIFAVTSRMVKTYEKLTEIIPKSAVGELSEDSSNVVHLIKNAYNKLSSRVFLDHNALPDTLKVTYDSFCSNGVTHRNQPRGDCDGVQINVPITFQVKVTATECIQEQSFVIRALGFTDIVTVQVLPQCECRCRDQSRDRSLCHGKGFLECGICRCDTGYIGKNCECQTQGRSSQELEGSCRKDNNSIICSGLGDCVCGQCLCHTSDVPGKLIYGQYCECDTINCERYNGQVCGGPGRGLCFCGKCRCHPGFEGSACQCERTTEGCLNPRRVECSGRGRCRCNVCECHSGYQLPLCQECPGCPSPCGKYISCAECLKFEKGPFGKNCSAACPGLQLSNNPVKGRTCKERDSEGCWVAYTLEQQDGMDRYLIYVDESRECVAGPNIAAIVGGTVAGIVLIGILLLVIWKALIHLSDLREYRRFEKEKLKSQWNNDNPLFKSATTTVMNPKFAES
ERa SRC1 inh: ER-alpha (human) coactivator binding inhibition | P03372 | TR-FRET ER-alpha LBD / SRC-1 peptide, estradiol-bound | inhibition, % at 25.6 µM | 86,000 compounds, 1.7% hits; in the data active means inhibition above about 50%;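 further: 0% = receptor plus peptide control and 100% = peptide only without receptor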
HUVEC prolif 384: inhibitors of human endothelial cell proliferation; HUVEC proliferation, CellTiter-Glo luminescence, 72 h; active compounds read low; viability, % at 10 µM (by protocol); 86,000 compounds, 1.1% hits; AID 648;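 active means viability at or below 30%; inactive means viability above 30%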;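 further: 100% = median luminescence of DMSO-only cell control wells on each plate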
ERa SRC1 pot: enhances coactivator binding to human estrogen receptor alpha; TR-FRET ERalpha-LBD/SRC-Cy5 coactivator binding, 2 h; 100 = basal binding, no effect; P03372; AID 639; 86,000 compounds, 1.3% hits; coactivator binding (% of control), % at 25.6 µM; in the data active means activity above about 200%;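 further: binding measured in presence of low estradiol as agonist stimulus; 0% = peptide alone without receptor and 100% = receptor with peptide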
Mac1 fbg enh: increases human CD11b/CD18 adhesion to fibrinogen | 93,000 compounds, 0.07% hits | P05107+P11215 | activation, % at 10 µM | K562 CD11b/CD18 adhesion to fibrinogen, ATPlite luminescence;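 active means 10 µM primary screen giving 50% or more activity, confirmed by 40% or more on retest at that dose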; further: strong numbers were not always called active
Lung fibro prol: blocks proliferation of human lung fibroblasts. LL 47 human lung fibroblast viability, ATP luminescence; active compounds read low. viability, % at 10 µM. 85,000 compounds, 1.1% hits. AID 719;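 active means viability at or below 50% in the single dose screen; inactive means viability above 50%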;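 further: compound exposure lasted 72 h before the ATP readout; 100% = median luminescence of untreated cell-only wells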
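material = human LL 47 lung fibroblast cells | dosing = compounds added from tenfold dosing solution, 0.1% DMSO final | timing = overnight cell rest, 72 h compound treatment at 37 °C | measured by = CellTiter-Glo luminescence measuring cellular ATP | evaluation = % viability versus median cells-only luminescence | control set = cell-only wells, no compound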
* hit, by the source's call; x = no result given; [ ] = dose if it differs, or a comment. The list is partial. The share of hits here may be higher or lower than overall.

structure,CD11b adhes inh,ERa SRC1 inh,HUVEC prolif 384,ERa SRC1 pot,Mac1 fbg enh,Lung fibro prol
CC(C)Oc1ccc(C2CC(=O)NC3=C2C(=O)CCC3)cc1 (stereo not drawn),x,7[fluorescence artefact?],103,99,x,98
CC(=O)Nc1cccc(N2C(=O)CCC2=O)c1,-2,1,110,104,6,100
Cc1ccc(NC(=O)CSc2nc(O)cc(=O)n2C)cc1,x,-10,92,91,x,99
CCC(C)C(NC(=O)OC(C)(C)C)C(=O)NCc1ccco1 (stereo not drawn),-4,0[fluorescence artefact?],96,94,5,98
CCOC(=O)C1CCCN(C(=O)C2CCN(S(=O)(=O)CC)CC2)C1 (stereo not drawn),x,2[fluorescence artefact?],101,108[fluorescence artefact?],x,104
COC(=O)C1=COC(C)C2CN3CCc4c([nH]c5ccccc45)C3CC12 (stereo not drawn),-2,-4,92,109,-2,89
Cc1ccc(NC(=O)Cn2nc(C)c3ccccc3c2=O)cc1F,-14,-7[fluorescence artefact?],95,99,-2,89
Cc1ccnc(SCC(=O)Nc2sc3c(c2C#N)CCC(C(C)(C)C)C3)n1 (stereo not drawn),14,9[fluorescence artefact?],91,98,-3,77
CCCN(CCC)CCNC(=O)C1CCCN(S(=O)(=O)c2ccc3c(c2)oc(=O)n3C)C1 (stereo not drawn),6,2,96,115,-2,111
N#CCCn1ncc2ccccc21,x,-22,91,108,x,94
CCc1nnc(NC=C2C(=O)OC(C)(C)OC2=O)s1,-4,4[fluorescence artefact?],98,110,0,109
Cc1cc(OC(C)C)nc(NCc2ccccc2)n1,x,-6,62,77,x,71
CCCC(O)(CCN1CCCCC1)c1ccc(OCC)cc1 (stereo not drawn),-12,13,98,87,-4,97
O=C(Oc1ccccc1)c1c(Cl)cccc1P(=O)(O)O,0,-3,96,104,-3,99
O=C(NCCCN1CCCCCC1)C1CC(=O)N(C2CCCC2)C1 (stereo not drawn),x,29[fluorescence artefact?],107,688*[fluorescence artefact?],x,111
COc1ccc(-c2cc(-c3c(O)c(OC)c4occc4c3OC)[nH]n2)cc1OC,x,13,78,69[fluorescence artefact?],x,63
O=C(Nc1cccc(OC(=O)c2ccco2)c1)c1ccco1,13,-6,87,101,6,102
COc1cc(NC(=O)c2ccco2)c(C(=O)O)cc1OC,x,15,102,94,x,107
COCc1nnc(NC(=O)c2ccc(S(=O)(=O)N3CCCCCC3)cc2)o1,x,-5,83,95,x,89

Some of the entries above, reformatted.
Second line of a record – CD11b adhes inh, ERa SRC1 inh, HUVEC prolif 384, ERa SRC1 pot, Mac1 fbg enh, Lung fibro prol
CCCN(CCC)CCNC(=O)C1CCCN(S(=O)(=O)c2ccc3c(c2)oc(=O)n3C)C1 (stereo not drawn)
  6, 2, 96, 115, -2, 111
N#CCCn1ncc2ccccc21
  x, -22, 91, 108, x, 94
CCc1nnc(NC=C2C(=O)OC(C)(C)OC2=O)s1
  -4, 4[fluorescence artefact?], 98, 110, 0, 109
Cc1cc(OC(C)C)nc(NCc2ccccc2)n1
  x, -6, 62, 77, x, 71
CCCC(O)(CCN1CCCCC1)c1ccc(OCC)cc1 (stereo not drawn)
  -12, 13, 98, 87, -4, 97
O=C(Oc1ccccc1)c1c(Cl)cccc1P(=O)(O)O
  0, -3, 96, 104, -3, 99
O=C(NCCCN1CCCCCC1)C1CC(=O)N(C2CCCC2)C1 (stereo not drawn)
  x, 29[fluorescence artefact?], 107, 688*[fluorescence artefact?], x, 111
COc1ccc(-c2cc(-c3c(O)c(OC)c4occc4c3OC)[nH]n2)cc1OC
  x, 13, 78, 69[fluorescence artefact?], x, 63
O=C(Nc1cccc(OC(=O)c2ccco2)c1)c1ccco1
  13, -6, 87, 101, 6, 102
COc1cc(NC(=O)c2ccco2)c(C(=O)O)cc1OC
  x, 15, 102, 94, x, 107
COCc1nnc(NC(=O)c2ccc(S(=O)(=O)N3CCCCCC3)cc2)o1
  x, -5, 83, 95, x, 89
